LASV entry inh: Lassa virus entry inhibition | Potency, µM (titrated, usually from 49.2 µM), for the others: top-dose activity change, negative = inhibition, usual class: inhibitors | 4.1% of 18,000 active | Lassa virus pseudotyped entry inhibition, cell-based qHTS; control for the full effect not named in the record; many of its hits are not listed in these tables; active = well fitted inhibition curve with a large enough effect; inconclusive = small, poorly fitted or top-dose-only effect; inactive = no such curve, though single readings can be large or run the other way; tested in HEK293 cells; further: luciferase read-out
MARV entry inh: Marburg virus entry inhibition. Marburg virus pseudotype entry/binding inhibition, cell-based; control for the full effect not named in the record; many of its hits are not listed in these tables. Potency, µM (doses to about 49.2 µM), for inactives: at the top dose activity change, negative = inhibition, actives largely listed as inhibitors. 6.5% of 18,000 active. AID 720532; active means well fitted inhibition curve with a large enough effect; inconclusive means small, poorly fitted or top-dose-only effect; inactive means no such curve, though single readings can be large or run the other way; tested in HEK293 cells; further: luciferase read-out
* hit, by the source's call; ? = inconclusive; / = not tested or not shown; & = joins results of further samples; [ ] = another dose, or the depositor's remark. On the % scale 0 is the no-effect control and ±100 the full control effect; potency means the concentration at half of the fitted maximal effect. Not all compounds are listed. The share of hits here may be higher or lower than overall.

SMILES	LASV entry inh	MARV entry inh
O=S1(=O)C=C[C@H](COCc2ccccc2)N1	-18%	6%
CCCCN(CC)c1c([N+](=O)[O-])cc(C(F)(F)F)cc1[N+](=O)[O-]	1%	-3%
COC(=O)C1=C[C@@]2(c3ccc(OC)cc3[C@@H](OC)[C@@H]2C)[C@@H]2C=C[C@@H]1C2	18%[8.59 µM]	50%[activator][8.59 µM]
O=C(/C=C/c1ccc(O)c(O)c1)OCCc1ccccc1	?	?
Cc1ccccc1-c1ccc(CN2CCc3nnc(C(NS(C)(=O)=O)C(C)C)n3CC2)cc1 (configuration not stated)	-11%	24%
CCC1(C2CCN(Cc3ccccc3Cl)CC2)NC(=O)N(CC2COc3ccccc3O2)C1=O (configuration not stated)	-9%	?
O=C(Nc1cccc(C(F)(F)F)c1)Nc1cc(Cl)ccc1C(=O)O	-12%	13%
CCCCCCCCCCCCCCCCCCOC[C@@H](O)COP(=O)([O-])OCC[N+](C)(C)C	1%	-9%
Cc1ccc(CNc2nc(CN3CCCCC3c3cccnc3)nc3ccccc23)o1 (configuration not stated)	6%	-7%
CCCCC[C@H](O)/C=C/[C@@H]1[C@H]2C/C(=C/CCCC(=O)O)O[C@H]2C[C@H]1O	7%&-9%&-13%	2%&3%&-10%
O[C@@H]1[C@@H]2O[P@@](O)(=S)OC[C@H]2O[C@H]1n1cnc2cc(Cl)c(Cl)cc21	-1%	3%
c1ccc2oc(C3=NCCN3)cc2c1	6%	-5%
CC(C)c1c(C(=O)NCc2cccnc2)cnn1-c1nccc(-c2ccccc2F)n1	1%	-2%
O=C1CCC[C@@H]2CC(N3CCCCC3)C[C@@H]3CCN1[C@H]23 (some centres not stated)	0%	-19%
CN(Cc1ccc(C(C)(C)C)cc1)Cc1cccc2ccccc12	?	-13%&-23%
COc1cc2c(cc1OC)[C@@H]1CC(=O)[C@@H](CC(C)C)CN1CC2	0%	5%
COC(=O)[C@@H]1C[C@@H](NC(=O)c2cnsn2)CN1Cc1ccc(Cl)cc1	2%	10%
O=C1CC[C@@H](C(=O)N2CSC[C@H]2C(=O)O)N1	-18%	10%
CC1CCC2C(C)C3C(CC4[C@@H]5CC=C6C[C@@H](O)CC[C@]6(C)C5CC[C@]34C)N2C1 (some centres not stated)	2%	-13%
Cc1nc([N+](=O)[O-])cn1-c1ccc([N+](=O)[O-])cc1	-7%	-17%
CCOC(=O)COc1ccc2c(C)c(CCN(CC)CC)c(=O)oc2c1	-1%	8%
Cc1ccnn1CC(=O)N1CCOc2c(cc(-c3ncc(C(F)(F)F)cc3Cl)cc2OCC2CCCO2)C1 (configuration not stated)	-14%	-26%
CCOC(=O)N1CCN(Cc2ccc3c(c2)CN(C(=O)c2cccc(-n4cccn4)c2)CCO3)CC1	-5%	-9%
CC(C)C[C@H]1COc2cc(Br)ccc2S(=O)(=O)N1Cc1ccc(Cl)cc1	-24%	?
Cc1cnc(-n2ncc(C(=O)N(C)CCc3ccccn3)c2-c2cccs2)nc1-c1ccc(F)cc1	-29%	-42%
The listing continues:
SMILES	LASV entry inh	MARV entry inh
CCCCC1=CC2=C(c3ccco3)C(=O)C(C)(OC(=O)c3ccc(OC)cc3)C(=O)C2=CN1Cc1ccc2c(c1)OCO2 (configuration not stated)	14%[8.59 µM]	?
Cc1onc(-c2ccccc2)c1C(=O)NC1C(=O)N2C(C(=O)O)C(C)(C)S[C@@H]12 (some centres not stated)	6%	10%
O=C(NCC1(N2CCCCC2)CCCCC1)c1ccc(-n2cc(NC(=O)c3cccnc3)cn2)cc1	-5%	4µM*
CC[C@H](C)[C@H](NC(=O)[C@H](Cc1ccc(O)cc1)NC(=O)[C@@H](NC(=O)[C@H](CCCN=C(N)N)NC(=O)[C@@H](N)CC(=O)O)C(C)C)C(=O)N[C@@H](Cc1ccc(N)cc1)C(=O)N1CCC[C@H]1C(=O)N[C@@H](Cc1ccccc1)C(=O)O	-1%	-5%
Cc1cnc(SCC2CCCO2)nc1C1CCCN(Cc2nc(-c3ccccc3)cs2)C1 (configuration not stated)	-13%	-9%
CO[C@H]1C=CO[C@@]2(C)Oc3c(C)c(O)c4c(O)c(c(/C=N/N5CCN(C)CC5)c(O)c4c3C2=O)NC(=O)/C(C)=C\C=C[C@H](C)[C@H](O)[C@@H](C)[C@@H](O)[C@@H](C)[C@H](OC(C)=O)[C@@H]1C	-3%	-10%
CSCC[C@H](NC(=O)[C@@H]1CCCN1C(=O)CNC(=O)[C@H](CCCCN)NC(=O)[C@H](Cc1cnc[nH]1)NC(=O)[C@H](CO)NC(=O)[C@H](CC(C)C)NC(=O)[C@H](CCCNC(=N)N)NC(=O)[C@@H]1CCCN1C(=O)[C@H](CCCNC(=N)N)NC(=O)[C@H](CCC(N)=O)NC(=O)[C@H](CCCNC(=N)N)NC(=O)[C@H](CCCNC(=N)N)NC(=O)[C@H](Cc1ccccc1)NC(=O)[C@@H](N)CCCCN)C(=O)N1CCC[C@H]1C(=O)N[C@@H](Cc1ccccc1)C(=O)O	-9%	3%
CC(=O)Oc1cccc(O)c1	-3%	-11%
COC(=O)/C=C/C(=O)N[C@@H]1CC[C@@]2(O)[C@H]3Cc4ccc(O)c5c4[C@@]2(CCN3CC2CC2)[C@H]1O5	28µM*	10µM*
CCC(=O)N[C@@H]1c2ccccc2C2(CCN(Cc3ccccn3)CC2)[C@H]1OC	-4%	9%
NCC(=O)N[C@@H](CCCN=C(N)N)C(=O)NCC(=O)N[C@@H](CC(=O)O)C(=O)N[C@@H](CO)C(=O)O	2%	10%
CCCCCCCC1=Cc2ccc(F)cc2C(C(C(C)=O)C(=O)OC)N1C(=O)OC (configuration not stated)	-4%	-6%
N#Cc1ccc(CS(=O)(=O)c2ccccc2)cc1	0%	-15%
CC[C@H](C)[C@H](NC(=O)[C@@H](NC(=O)CNC(=O)[C@@H](N)CC(C)C)[C@@H](C)O)C(=O)N1CCC[C@H]1C(=O)NCC(=O)O	13%	8%
OC[C@H]1O[C@@H]2O[C@H]3[C@H](O)[C@@H](O)[C@@H](O[C@H]4[C@H](O)[C@@H](O)[C@@H](O[C@H]5[C@H](O)[C@@H](O)[C@@H](O[C@H]6[C@H](O)[C@@H](O)[C@@H](O[C@H]7[C@H](O)[C@@H](O)[C@@H](O[C@H]8[C@H](O)[C@@H](O)[C@@H](O[C@H]1[C@H](O)[C@H]2O)O[C@@H]8CO)O[C@@H]7CO)O[C@@H]6CO)O[C@@H]5CO)O[C@@H]4CO)O[C@@H]3CO	-6%	0%
COc1ccc2cc1Oc1ccc(cc1)C[C@H]1c3c(cc4c(c3Oc3cc5c(cc3OC)CCN(C)[C@@H]5C2)OCO4)CCN1C	?	1.8µM*
COCOCCn1cc(CN2CCS(=O)(=O)N(Cc3ccc(-c4cccc(CO)c4)cc3)C(C(C)C)C2=O)nn1 (configuration not stated)	-21%	23%
CCCCCC(=O)CC[C@@H]1[C@@H](C/C=C\CCCC(=O)O)[C@@H](O)C[C@H]1O	-14%	4%
CC1=C(/C=C/C(C)=C/C=C/C(C)=C\CO)C(C)(C)CCC1	2%	11%
COC(=O)[C@H]1[C@@H](c2ccccc2)NC(=O)N(Cc2ccccc2)[C@@H]1C	-1%[8.59 µM]	?
CC[C@@]1(O)C(=O)OCc2c1cc1n(c2=O)Cc2cc3c(CN(C)C)c(O)ccc3nc2-1	-47%	?
COc1ccc(C(=O)NCc2nc(-c3cccc(NC(=O)c4ccc(C)s4)c3)oc2C)cc1	-24%	-2%
C#CCCCON=C1C[C@@H](O)[C@H](O)[C@H]2[C@@H]3C(=O)N(C[C@@H]4CCCO4)C(=O)[C@@H]3CC[C@@H]12	26%[8.59 µM]	3%[8.59 µM]
Cc1ccc(S(=O)(=O)OCCc2ccccc2)cc1	-1%	0%
N#Cc1cc2nc(O)c(O)nc2cc1[N+](=O)[O-]	4%	9%

Arranged by SMILES length (lowest first): some entries from above
SMILES	LASV entry inh	MARV entry inh
CCCCC1=CC2=C(c3ccco3)C(=O)C(C)(OC(=O)c3ccc(OC)cc3)C(=O)C2=CN1Cc1ccc2c(c1)OCO2 (configuration not stated)	14%[8.59 µM]	?
C#CCCCON=C1C[C@@H](O)[C@H](O)[C@H]2[C@@H]3C(=O)N(C[C@@H]4CCCO4)C(=O)[C@@H]3CC[C@@H]12	26%[8.59 µM]	3%[8.59 µM]
CC[C@H](C)[C@H](NC(=O)[C@H](Cc1ccc(O)cc1)NC(=O)[C@@H](NC(=O)[C@H](CCCN=C(N)N)NC(=O)[C@@H](N)CC(=O)O)C(C)C)C(=O)N[C@@H](Cc1ccc(N)cc1)C(=O)N1CCC[C@H]1C(=O)N[C@@H](Cc1ccccc1)C(=O)O	-1%	-5%

(listing goes on)
SMILES	LASV entry inh	MARV entry inh
COc1cccc([C@@H]2Oc3ccc(OC)cc3C(=O)[C@H]2OC(=O)NCc2ccco2)c1	-9%	7%
CC1CN(CC(=O)NCc2ccc3c(c2)OCO3)Cc2cc(Cl)ccc2O1 (configuration not stated)	-1%	-26%
Cc1ccccc1N=C(N)Nc1ccccc1C	39%&0%[activator]	?
O=C(NCCc1nnc2n1CCN(Cc1ccc(F)cc1)CC2)c1ccc(F)cc1	-5%	?
C=CC[C@@H]1/C=C(\C)C[C@H](C)C[C@H](OC)[C@H]2O[C@@](O)(C(=O)C(=O)N3CCCC[C@H]3C(=O)O[C@H](/C(C)=C/[C@@H]3CC[C@@H](O)[C@H](OC)C3)[C@H](C)[C@@H](O)CC1=O)[C@H](C)C[C@@H]2OC	?	?
C=C1CCC(O)C/C1=C\C=C1/CCCC2(C)C1CCC2C(C)CCCC(C)C (configuration not stated)	?	10%
COc1cc2c(cc1O)-c1ccccc1CN(C)C2	1%	49%[activator]
Cc1ccccc1N1C(=O)c2cc(S(N)(=O)=O)c(Cl)cc2NC1C (configuration not stated)	0%&-10%&-18%	?
O=C1CC[C@@H](CN(Cc2cccnc2)C2CCN(c3ccc(NC(=O)c4cnccn4)cc3)CC2)N1	19%	4%
CC(=O)Nc1ccc(S(=O)(=O)N2CCc3nc(COc4ccccc4)c4c(c3C2)CO[C@@H](C)C4)cc1	2%[8.59 µM]	45%[activator][8.59 µM]
Cc1c(C(=O)N2CCOc3ccc(Cl)cc3C2)sc2ncnc(NCCc3ccccn3)c12	-18%	-25%
Nc1ccc(O)c(C(=O)O)c1	-7%	?
Cc1ccccc1-c1nc(NC2CCNCC2)c2ccccc2n1	9%	8.9µM*
Cc1cccc(CN2CCN(C3CN(CCc4ccccc4)S(=O)(=O)C3)CC2)c1 (configuration not stated)	60%[activator]	21%
C=CC1=C2C=C(C3CC3)N(CC(C)C)C=C2C(=O)C(C)(OC(=O)c2ccco2)C1=O (configuration not stated)	-4%[8.59 µM]	-40%[8.59 µM]
CCCC(=O)c1ccc(OCc2cn(CC(=O)c3ccc(O)cc3)nn2)cc1	/	17%
CCN1C(=O)[C@@H]2[C@H]3[C@H](O)[C@H](O)CC(=NOCC[C@@H]4C=C[C@H](OC(C)=O)[C@@H](COC(C)=O)O4)[C@@H]3CC[C@H]2C1=O	-1%[8.59 µM]	-15%[8.59 µM]
COc1cc(OC)c([C@@H]2O[C@H](CO)[C@@H](O)[C@H](O)[C@@H]2O)c(OC)c1	14%[8.59 µM]	102%[activator][8.59 µM]
Cc1cc2oc(=O)cc(-c3ccccc3)c2c(C)c1-c1ccoc1	-12%	6%
C[N+]1(C)CC(O)[C@H](C(=O)[O-])C1 (some centres not stated)	-1%	6%
COC(=O)[C@H](CC(C)C)N(Cc1cc(OC)cc(OC)c1)S(=O)(=O)c1ccccc1Br	/	?
Cc1cnc(SCc2ccccn2)nc1C1CCCN(C(=O)c2scc3c2CCCC3)C1 (configuration not stated)	?	10µM*
C[C@@H]1C=CCCO[C@]12C(=O)N(Cc1ccc(F)cc1)c1cccc(Br)c12	-10%[8.59 µM]	-21%[8.59 µM]
CC[C@@H]1Cc2cc(O)ccc2C2=C1c1ccc(O)cc1C[C@H]2CC	20µM*	?
Nc1nc2c(nc(Br)n2C2OC(CO)C(O)C2O)c(=O)[nH]1 (configuration not stated)	-13%	27%
Later entries:
SMILES	LASV entry inh	MARV entry inh
Nc1nc2c(ncn2[C@@H]2O[C@H](CO)[C@@H](O)[C@H]2O)c(=O)[nH]1	-17%	7%
Cc1cc(C)c2c(CN3CCOCC3)cc(=O)oc2c1	15%	5%
Nc1nc(-c2nn(Cc3ccccc3F)c3ncccc23)ncc1C1CC1	0.89µM*	0.56µM*
CC(C)=CCC/C(C)=C/CC/C(C)=C/CC/C(C)=C/CO	-11%&17%	15%&11%
CC[C@@H](C)[C@@H](O)[C@H](C)C(=O)[C@H](C)/C=C(\C)C[C@H](C)[C@@H]1OC(=O)[C@H]1CC	-3%	10%
CCCCOCC1CN(CCCC)S(=O)(=O)c2c(Oc3ccc(F)cc3)cccc2O1 (configuration not stated)	/	-22%

Copied from the list.
CC(C)c1c(C(=O)NCc2cccnc2)cnn1-c1nccc(-c2ccccc2F)n1 | MARV entry inh: -2%
O=C(NCCc1nnc2n1CCN(Cc1ccc(F)cc1)CC2)c1ccc(F)cc1 | LASV entry inh: -5%

Quoted at random: 3 compounds from above
SMILES	LASV entry inh	MARV entry inh
CCCCOCC1CN(CCCC)S(=O)(=O)c2c(Oc3ccc(F)cc3)cccc2O1 (configuration not stated)	/	-22%
Cc1cc(C)c2c(CN3CCOCC3)cc(=O)oc2c1	15%	5%
CC[C@@H](C)[C@@H](O)[C@H](C)C(=O)[C@H](C)/C=C(\C)C[C@H](C)[C@@H]1OC(=O)[C@H]1CC	-3%	10%
